Source: PubChem BioAssay
NPYLR7 agonist: activates Aedes aegypti NPYLR7 receptor. HEK293T NPYLR7/Galpha15, GCaMP6s calcium fluorescence. activation, % at 10 µM. actives 0.15% (n = 270,000). AID 1259423; in the data active means activation above about 40%;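 further: 0% = vehicle and 100% = reference agonist at the receptor; some compounds past the cut are filed as inactive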
NPYLR7 agonist max-min: recorded beside NPYLR7 agonist, whose call it bears; activation, %; measured here: Max-Min RFU normalised activation; some inactives read as strong as hits;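 span of the calcium signal over five minutes; 0% = vehicle and 100% = native peptide agonist; compound fluorescence can raise it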
* marks the source's active call; other numbers are inactive results; & = joins results of further samples.

SMILES	NPYLR7 agonist	NPYLR7 agonist max-min
Nc1c(C(=O)CSc2ncn[nH]2)c(=O)[nH]c(=O)n1C1CC1	4	6
O=C(CCC(=O)N1CCCC(Nc2ccccc2)C1)c1ccc(F)cc1 (stereo not given)	1	-2
COc1ccc(-c2nnc(SCCC(N)=O)n2C2CCCCC2)cc1	5	7
O=C(NCc1ccncc1)c1ccc(CSc2nnc(-c3ccccc3Cl)n2-c2ccc(F)cc2)cc1	1	12
O=c1[nH]nc2c3c(cccc13)-c1ccccc1-2	7	6
O=C1c2ccccc2CCC1C1(O)C(=O)Nc2ccc(Br)cc21 (stereo not given)	-2	-2
CC(=O)N1CC(C)CN(CC(=O)NCc2ccco2)c2ccccc21 (stereo not given)	10	12
CNC(=O)[C@@H]1C[C@H](N)CN1S(=O)(=O)c1sc2ccc(Cl)cc2c1C	7	5
Cc1noc(-c2ccc(N(C)Cc3cnn(C)c3)nc2)n1	4	1
O=C1C[C@H]2CC[C@@H](CN1)N2C(=O)C1c2ccccc2-c2ccccc21	0	3
COCc1ccc(C(=O)NC2CCCc3c2cnn3-c2ccc(F)cc2F)o1 (stereo not given)	-1	-2
CCc1nc2ccc(C(=O)N3CCCCC3)cn2c1N(C)C(=O)C1CCCCC1	-5	-11
COc1ccc(-c2nc(SC3CC(C)OC3=O)n[nH]2)c(OC)c1 (stereo not given)	1	1
CCOCCCN(CC(=O)N(Cc1ccccc1)Cc1cccn1Cc1ccc(F)cc1)C(=O)c1cccc(Br)c1	-5	5
Cc1ccc(C)c(NC2=NC3CS(=O)(=O)CC3S2)c1 (stereo not given)	-2	-1

Part of the list above, field by field.
Nc1c(C(=O)CSc2ncn[nH]2)c(=O)[nH]c(=O)n1C1CC1
- NPYLR7 agonist: 4
- NPYLR7 agonist max-min: 6
O=C(CCC(=O)N1CCCC(Nc2ccccc2)C1)c1ccc(F)cc1 (stereo not given)
- NPYLR7 agonist: 1
- NPYLR7 agonist max-min: -2

(list continues)
SMILES	NPYLR7 agonist	NPYLR7 agonist max-min
CN=c1scc(-c2ccccc2)n1N=Cc1ccc(Br)cc1	6	3
COC(=O)c1ccc(NC(=O)c2cccn(OCc3ccccc3)c2=O)cc1	3	18
Cc1ccc(-n2cc(CN(C)Cc3cn(C)nc3C)c(-c3ccc(F)cc3)n2)cc1	-21	-19
CC1=NOC(Cc2ccccc2)C(=O)N1Cc1csc(C)n1 (stereo not given)	12	6
CC(C)Oc1ccc(S(=O)(=O)N2CCOCC2)cc1NC(=O)C=Cc1nc2ccccc2o1	2	-1
CC1CN(c2oc(-c3ccc(COc4ccccc4)o3)nc2C#N)CC(C)O1 (stereo not given)	1	26
Cn1c(=O)[nH]c(=O)c2c1nc(N1CCOCC1)n2CCSc1ncccn1	7	6
Oc1ccc(-c2cnn3cccnc23)cc1	-1	-4
CCCCOc1ccc(C(=O)Nc2ccc(N3CCN(c4ccccc4OC)CC3)c(C(=O)NCCN(CC)CC)c2)cc1	18	21
O=C(O)c1ccc(-n2nncc2C23CC4CC(CC(C4)C2)C3)cc1	3	2
COc1cccc(CN(Cc2ccccc2)Cc2nc(C(=O)NCCc3ccccn3)co2)c1OC	13	6
Cc1ccc(N=C2SC(C(=O)NCCc3ccccc3)CC(=O)N2C)cc1Cl (stereo not given)	2	1
CCOC(=O)C1CCN(Cc2nc3sc4c(c3c(=O)[nH]2)CCCC4)CC1	8	11
COc1cccc(C=CC(=O)c2cccc(N3CCOCC3)c2)c1OC(F)F	4	1
CCOC(=O)C1CC1CN1CCN(CCCOC(c2ccc(Cl)cc2)c2ccc(Cl)cc2)CC1 (stereo not given)	1	1
CCc1cc(NC(C)Cn2cccn2)nc(N2CCOCC2)n1 (stereo not given)	18	10
CCOC(=O)C1CCN(CC(=O)N2N=C(c3ccc(C)cc3C)CC2c2ccccc2F)CC1 (stereo not given)	-1	0
Cc1cn2c3c(=O)n(CC(=O)OCc4ccccc4)c(=O)n(C)c3nc2n1C(C)C	-2	1
CC1N(C)c2ccc(C=C(C#N)C#N)cc2C1(C)C (stereo not given)	14&22	9&19
CCNC(=O)c1coc(CN(Cc2cccc(OC)c2)C(C)c2ccccc2)n1 (stereo not given)	7	12
Oc1oc(-c2ccccc2F)nc1C=Nc1ccc(Br)cc1	-6	-10
CC(=O)CC1(O)C(=O)N(CCOc2ccccc2)c2ccc(Br)cc21 (stereo not given)	-3	-4
CC(=O)N1CCCN(C(=O)c2ccc(=O)n(C)c2)c2ccccc21	2	5
COCCSc1ncc(-c2cccc(OC)c2)c(C2CCCN(C(=O)c3cc[n+]([O-])cc3)C2)n1 (stereo not given)	17	4
O=C(NC1CCCN(c2ccc(C(F)(F)F)cn2)C1)c1cccc2nccnc12 (stereo not given)	4	0
CCN(CC1CCCN(CCc2cccc(OC)c2)C1)C(=O)CCn1cnnn1 (stereo not given)	2	1
CCc1nc2ccc(C(=O)N3CCN(C)CC3)cn2c1N(C)CCCc1ccccc1	22	15
COc1cc(C)c(S(=O)(=O)Nc2cccc(-c3ccc(N4CCCC4)nn3)c2)cc1C	-8	-9
O=C(Nc1ncc(-c2ccccc2)s1)OCC(F)(F)F	9	3
CCN(CC)C(=O)Oc1ccc2c(ccn2Cc2cccc(C#N)c2)c1-c1cc(F)cc(F)c1	14	16
CCc1cn[nH]c1C1CCN(Cc2ccc(-n3cccn3)cc2C)CC1	2	0
Cc1ccc(/C=C/C2=NC(=C\c3ccc(Cl)cc3)/C(=O)O2)cc1	-1	-7
CC(c1ccccc1)n1c(Cn2cccn2)nnc1SCC(=O)O (stereo not given)	15	2
COc1ccc(NC(=O)Cn2c(-c3nnc(C(C)C)o3)cc3ccccc32)c(OC)c1	-7	-6
CC(C)COC(=O)C1C2C=CC3(CN(CC(C)C)C(=O)C13)O2 (stereo not given)	6	5
O=C(NC(c1ccc(-c2ccccc2)cc1)c1cnccn1)C1CCN(Cc2ccc3c(c2)OCO3)CC1 (stereo not given)	5	8
NC(=O)C1CCCN(Cc2ccccc2C(F)(F)F)C1 (stereo not given)	4	3
Cc1cc(Nc2ccccc2O)ncn1	-8	-12
CCS(=O)(=O)N1CCN(c2nccc(CCC(F)(F)F)n2)CC1	0	20
CCOC(=O)N1CCN(C2CCCN(C(=O)CCc3nc(-c4ccccc4)no3)C2)CC1 (stereo not given)	5	4
COc1ccc(C(N)=O)c(OCC(=O)c2ccc(C3CCCCC3)cc2)c1	5	4
O=C(Cc1cc(-c2ccccc2)on1)Nc1cccnc1	3	6
COc1ccc(-c2cc(C(=O)NC3CC3)c(C)n2-c2cccc(OC)c2)cc1	-4	-4
Cc1cc(N2CCC3(CC2)OCCO3)nc(C)n1	-3	-4
CCn1c(O)c(C=NCC(=O)NC)c(=O)n(CC)c1=S	-9	-11
Cc1ccc(NS(=O)(=O)c2ccc3[nH]c(=O)oc3c2)c(Cl)c1	-1	1
CCCCNC(=O)c1cccc(NC(=O)C(C)(C)C)c1	-4	-5
COc1ccc(OCc2nc(CSc3cccs3)cs2)cc1	19	24
Cc1cc(N2CC(C(=O)NC3CCN(C4CC4)CC3)CC2=O)ccc1Br (stereo not given)	15	11
Cc1cccc(C(=O)N(Cc2cc(NC(=O)CC(C)(C)C)ccc2N(C)C)C(C)C)c1	8	13
CN(C)CCNC(=O)c1ccc(-c2cc(-c3cc(C(F)(F)F)cc(C(F)(F)F)c3)cnc2N)cc1	-6	-11
O=C(CCC1CCN(Cc2cccn2-c2ncccn2)CC1)Nc1ccccc1Cl	4	5
COCC1(C)NC(=O)N(CCn2cc(C#N)cn2)C1=O (stereo not given)	0	-1
COc1ccc(-c2nnn3c2nc(NCc2ccccc2)c2ccccc23)cc1	-7	-14
CCOC(=O)CC1C(=O)NCCN1C(=O)CCNC(=O)c1ccc(NC2OC(C3COC(C)(C)O3)[C@@H]3OC(C)(C)O[C@H]23)cc1 (stereo not given in full)	-7	-9
Cc1ncccc1C(=O)N(CCC#N)CC(C)(C)C	-2	-3
Cc1[nH]c2ccc(CNC(=O)CN3C(=O)N(C)Cc4ccccc43)cc2c1C	-8	-12
COc1cccc(-n2nnc3c(=O)n(Cc4ccc(C(F)(F)F)cc4)cnc32)c1	7	6
O=C(Nc1ccc(N2CCC(NCc3cccc(Cl)c3)CC2)cc1)C1CCCC1	23	5
O=C(CCNc1nc(-c2cccc(Br)c2)nc2ccccc12)NC1CC1	4	7

(more compounds)
SMILES	NPYLR7 agonist	NPYLR7 agonist max-min
Cc1ccc(C(CN2CCOCC2)NS(=O)(=O)c2ccc(Cl)cc2F)cc1 (stereo not given)	1	-6
Fc1cccc(C2c3cccn3CCCN2Cc2ccccc2C(F)(F)F)c1 (stereo not given)	1	4
CCOC(=O)C1=C(CC)NC2=C(C(=O)CCC2)C1c1ccncc1 (stereo not given)	9	14
O=C(OCc1nnc(-c2cc3c(s2)CCCC3)o1)C1CSC2(c3ccc(F)cc3)CCC(=O)N12 (stereo not given)	32	35
COc1ccc(C2NC(=O)N(C)C3=C2C(=O)N(CC2CCCO2)C3)cc1 (stereo not given)	-3	5
Cc1nnc(-c2cccc(C(=O)N(C)CC(C)c3ccccc3)c2)o1 (stereo not given)	-2	-2
CCNc1ccnc(N2CCN(Cc3cnc(N4CCCC4)nc3)CC2)n1	-7	-11
CC(=O)OC(C)(C)C(=O)N1CCN(C(c2ccccc2)c2ccc(Br)cc2)CC1 (stereo not given)	19	3
COc1ccc(C(=O)N2CCOC2CNC(=O)C(=O)NCc2ccccc2Cl)cc1 (stereo not given)	-3	3
COC(=O)c1ccc(CC2(C)C(=O)Nc3ccc(-c4cccc(C(C)=O)c4)cc32)o1 (stereo not given)	0	7
Cc1oc(-n2cccc2)c(C#N)c1C(=O)OCc1cc(=O)n2c(C)csc2n1	-4	-6
N=C(N)SCCc1ccc(CCSC(=N)N)cc1	2	-17
O=C1CCN(CC(O)Cc2ccccc2)c2ccccc2CN1Cc1ccco1 (stereo not given)	-1	9
COCCn1c(C)cc(O)c(C(c2ccccn2)N2CCCCC2)c1=O (stereo not given)	6	1
COC(=O)c1scc(-c2ccc(C)cc2)c1S(=O)(=O)N1CCC(C)CC1	2	5
COc1ccc(-c2ccc(OCCNC(=O)C3CC3)nn2)cc1	-5	-5
O=C(Cc1ccccc1Br)Nc1cc(-c2onc3c2CCCC3)cc(C(F)(F)F)c1	26	28
CC1(C)CNC2(S1)C(=O)N(Cc1ccccc1Cl)c1ccccc12 (stereo not given)	28	31
Nc1c(C(=O)CSc2nnc(C3CC3)n2C2CC2)c(=O)[nH]c(=O)n1C1CC1	-2	10
CC1CN(C(N)=S)N(c2ccccc2)C1 (stereo not given)	1	-1
c1cc(-c2ccc(CN3CCCC4(CCNC4)C3)s2)[nH]n1 (stereo not given)	1	-1
O=C(CCn1nnc2ccccc21)N1CCCC1c1ccccn1 (stereo not given)	5	3
CC(=O)N[C@H]1C[C@@H](c2cccc(OCc3ccccn3)c2)O[C@@H](C(C)C)C1	13	9
COc1ccc(-c2nc(C(F)(F)F)c(OC)o2)cc1OC	3	0
O=S(=O)(Nc1c(F)cccc1F)c1cccc(Br)c1	-6	-4
COc1ccc2c(=O)cc(-c3cc(Br)cc4c3OCOC4)oc2c1	1	-1
COc1ccccc1CC(C)CC(=O)Nc1nnc(C)s1 (stereo not given)	-1	-5
CCc1ccc(C(=O)N2CCN(C(=O)Nc3ccccc3F)CC2)cc1	-1	-3
CCNc1nc(NCC)nc(N/N=C2\CC3C=CCC23)n1 (stereo not given)	0	-4
CC(=O)N[C@H]1CCN(CC(=O)Nc2ccc(Cl)c(C)c2)C1	0	31

Taken from the listing, 21 compounds:
SMILES	NPYLR7 agonist	NPYLR7 agonist max-min
COC(=O)c1ccc(CC2(C)C(=O)Nc3ccc(-c4cccc(C(C)=O)c4)cc32)o1 (stereo not given)	0	7
Cc1oc(-n2cccc2)c(C#N)c1C(=O)OCc1cc(=O)n2c(C)csc2n1	-4	-6
N=C(N)SCCc1ccc(CCSC(=N)N)cc1	2	-17
O=C1CCN(CC(O)Cc2ccccc2)c2ccccc2CN1Cc1ccco1 (stereo not given)	-1	9
COCCn1c(C)cc(O)c(C(c2ccccn2)N2CCCCC2)c1=O (stereo not given)	6	1
COC(=O)c1scc(-c2ccc(C)cc2)c1S(=O)(=O)N1CCC(C)CC1	2	5
COc1ccc(-c2ccc(OCCNC(=O)C3CC3)nn2)cc1	-5	-5
O=C(Cc1ccccc1Br)Nc1cc(-c2onc3c2CCCC3)cc(C(F)(F)F)c1	26	28
CC1(C)CNC2(S1)C(=O)N(Cc1ccccc1Cl)c1ccccc12 (stereo not given)	28	31
Nc1c(C(=O)CSc2nnc(C3CC3)n2C2CC2)c(=O)[nH]c(=O)n1C1CC1	-2	10
CC1CN(C(N)=S)N(c2ccccc2)C1 (stereo not given)	1	-1
c1cc(-c2ccc(CN3CCCC4(CCNC4)C3)s2)[nH]n1 (stereo not given)	1	-1
O=C(CCn1nnc2ccccc21)N1CCCC1c1ccccn1 (stereo not given)	5	3
CC(=O)N[C@H]1C[C@@H](c2cccc(OCc3ccccn3)c2)O[C@@H](C(C)C)C1	13	9
COc1ccc(-c2nc(C(F)(F)F)c(OC)o2)cc1OC	3	0
O=S(=O)(Nc1c(F)cccc1F)c1cccc(Br)c1	-6	-4
COc1ccc2c(=O)cc(-c3cc(Br)cc4c3OCOC4)oc2c1	1	-1
COc1ccccc1CC(C)CC(=O)Nc1nnc(C)s1 (stereo not given)	-1	-5
CCc1ccc(C(=O)N2CCN(C(=O)Nc3ccccc3F)CC2)cc1	-1	-3
CCNc1nc(NCC)nc(N/N=C2\CC3C=CCC23)n1 (stereo not given)	0	-4
CC(=O)N[C@H]1CCN(CC(=O)Nc2ccc(Cl)c(C)c2)C1	0	31

An excerpt, so the mix of outcomes need not match the whole.
